KCNQ2 inh – KCNQ2 channel blockers in CHO-K1 cells – cell-based, FluxOR thallium flux, B-score, primary screen (AID 2156). 20 min; stronger effect = lower value; only compounds with negative scores are shown here; some inactives read as strong as hits. B-score at 10 µM. O88943. 1.1% of 310,000 active;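 active = fluorescence ratio B-score at most minus 3 library SDs, with starting brightness B-score within 2 library SDs, cut at about -5.5 in these data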
Target sequence (O88943 whole entry, looked up): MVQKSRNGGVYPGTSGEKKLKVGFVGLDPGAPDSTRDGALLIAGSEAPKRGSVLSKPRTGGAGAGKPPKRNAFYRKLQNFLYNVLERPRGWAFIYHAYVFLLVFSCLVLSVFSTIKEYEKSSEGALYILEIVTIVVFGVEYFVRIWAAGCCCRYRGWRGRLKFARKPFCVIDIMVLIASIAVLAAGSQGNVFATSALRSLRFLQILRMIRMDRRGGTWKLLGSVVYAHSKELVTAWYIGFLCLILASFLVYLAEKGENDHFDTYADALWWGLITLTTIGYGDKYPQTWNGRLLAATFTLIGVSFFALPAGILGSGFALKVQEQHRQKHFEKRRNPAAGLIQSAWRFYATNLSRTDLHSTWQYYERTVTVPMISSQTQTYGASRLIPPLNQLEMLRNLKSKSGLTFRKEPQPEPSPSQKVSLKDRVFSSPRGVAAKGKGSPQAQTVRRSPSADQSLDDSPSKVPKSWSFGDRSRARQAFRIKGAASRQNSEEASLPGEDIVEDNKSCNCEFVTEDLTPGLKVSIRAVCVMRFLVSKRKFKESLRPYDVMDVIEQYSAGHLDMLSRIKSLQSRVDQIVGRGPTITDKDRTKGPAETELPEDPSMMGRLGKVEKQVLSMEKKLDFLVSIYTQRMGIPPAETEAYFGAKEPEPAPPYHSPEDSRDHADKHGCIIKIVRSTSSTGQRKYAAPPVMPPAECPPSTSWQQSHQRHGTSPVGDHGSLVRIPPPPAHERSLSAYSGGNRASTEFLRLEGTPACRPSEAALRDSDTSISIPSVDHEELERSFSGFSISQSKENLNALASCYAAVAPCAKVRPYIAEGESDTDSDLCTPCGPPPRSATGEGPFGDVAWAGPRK
KCNQ2 inh baseline – also measured in KCNQ2 inh; calls as there; B-score; measured here: initial fluorescence intensity artifact check;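 brightness before thallium and not channel activity; 0 = typical well and far values either way flag optical interference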
* hit, by the source's call; i = inactive. An excerpt; rates above refer to the full screens.

Values run as follows: KCNQ2 inh, KCNQ2 inh baseline
Cc1ccc2c(c1)N(CC(=O)N1CCCC(C)C1)C(=O)CO2 (stereo not drawn)
→ i, 0.4
O=C(CCCN1C(=O)/C(=C/c2cccs2)SC1=S)NNC(=O)c1ccccc1O
→ i, -1.1
CCC(C)c1ccccc1OCCCN(C)Cc1ccccc1 (stereo not drawn)
→ i, -1.3
CCOC(=O)C1=C(C)N(C)C(C)=C(C(=O)OCC)C1c1ccc(Cl)cc1
→ i, -1.6
CCn1ncc(Br)c1C(=O)Nc1ccn(C23CC4CC(CC(C4)C2)C3)n1
→ i, 1.6
CC1=C(C(=O)OCc2ccccc2)C(c2ccc(Br)cc2)NC(=O)N1CCCC(=O)O (stereo not drawn)
→ i, 1
CCOC(=O)c1snc2c(=O)[nH]cnc12
→ i, 1.2
Cc1ccn2c(CNC(C)CCn3cccn3)c(C(=O)N3CCCCCC3)nc2c1 (stereo not drawn)
→ i, 1.1
COC(=O)Nc1ccc(SCC(=O)c2ccc(Cl)cc2)cc1
→ i, 0.24
CCOc1ccc2nc(SCC(=O)N(CC(C)C)c3c(N)n(Cc4ccccc4)c(=O)[nH]c3=O)[nH]c2c1
→ i, -0.8
CC(=O)NC1CC2CCCC(C1)N2CC(=O)N1CCCc2ccccc21 (stereo not drawn)
→ i, 2.1
Cc1ccc(S(=O)(=O)N2CCCC2)cc1S(=O)(=O)N1CCCC1
→ i, -1
NS(=O)(=O)c1ccc(CCNC(=O)CSc2nc3ccsc3c(=O)n2CCCCC(=O)O)cc1
→ i, -1.9
COc1ccc(CCNC(=O)/C(C#N)=C/c2cccc(OCc3ccccc3)c2)cc1OC
→ i, -0.28
Cc1ccc(/C=C2\SC(=S)N(CCC(=O)NNC(=O)c3ccccc3O)C2=O)cc1
→ i, -1.8
COc1ccc(NC(=S)N(Cc2ccccn2)Cc2ccccc2Cl)cc1
→ -7.9*, -0.98*
CN1CCN(NC(=O)c2ccc(Cl)c([N+](=O)[O-])c2)CC1
→ i, -0.26
CCOC(=O)N1CCN(C(=O)COc2ccc3c(c2)C(=O)CC(C)(C)O3)CC1
→ i, 0.26
N#CC1=C(N)NC(SCc2ccc(Cl)cc2)=C(C#N)C12CCCCC2
→ i, -1.6
C/C(=N\Nc1ccc(C(=O)O)cc1)c1ccc(Br)cc1
→ i, 1.5
O=C(NCc1ccc(F)cc1)c1cnc(Cl)c(Cl)c1
→ i, -0.16
NC(=O)c1ccsc1NC(=O)c1ccco1
→ i, -0.07
CCOc1ccc(NCC(=O)Nc2ccc(Cl)cc2C)cc1
→ i, 0.23
CNC(=S)N(Cc1ccc(OC)cc1)C1CC(=O)N(c2ccc(C(=O)OC)cc2)C1=O (stereo not drawn)
→ i, 0.23
CC(=O)Nc1ccc(Oc2nc(C(F)(F)F)nc3ccccc23)cc1
→ i, -1.7
C=CC(=O)NCc1ccc(-c2csnn2)cc1
→ i, 0.06
COC(c1ccccc1)c1nnc(CCC(=O)NCCCc2ccccc2)o1 (stereo not drawn)
→ i, -2.2
O=C(Nc1ccc(Br)cc1)C1Cc2ccccc2O/C1=N\O (stereo not drawn)
→ i, -1.5
Cc1cc(F)ccc1NCc1cc2c(cc1[N+](=O)[O-])OCO2
→ i, -0.22
Cc1cc(C)c(NC(=O)CN(C2CCCCC2)C2CCCCC2)c(C)c1
→ i, 2
COC(=O)c1ccc(C)c(-n2c(C)cc(C=O)c2C)c1
→ i, 0.05
Cc1[nH]n(-c2ccccc2)c(=O)c1C(c1ccccc1C(=O)O)c1c(C)[nH]n(-c2ccccc2)c1=O
→ i, 0.53
CC(=O)Nc1nc2ccccc2n1Cc1ccc(C)cc1
→ i, 1.2
CCC1=NN(C(=O)COc2ccccc2C)C(O)(c2ccncc2)C1 (stereo not drawn)
→ i, -0.02
COc1cccc(-n2c([S-])c(C(=O)Nc3ccc(C(F)(F)F)cc3)[n+]3ccccc23)c1
→ i, 1.6
COc1ccc(CN(C(=O)c2ccco2)C2CCS(=O)(=O)C2)cc1 (stereo not drawn)
→ i, -0.89
CC1CCc2nc3ccc(S(=O)(=O)N4CCC(C(=O)N5CCCCC5)CC4)cc3c(C(=O)O)c2C1 (stereo not drawn)
→ i, 0.84
Cc1c(NC(=S)NC(=O)c2ccccc2Br)c(=O)n(-c2ccccc2)n1C
→ i, -0.95
CCOC(=O)C1CCN(C(=O)CSc2ccccc2Cl)CC1
→ i, -0.62
Nc1cc2c([N+](=O)[O-])cccc2o1
→ i, 0.32
Cc1ccc(C2Nc3ccccc3-c3nc4ccccc4n32)o1 (stereo not drawn)
→ i, -1.4
Cc1cccc(S(=O)(=O)c2c(C)cc(C)[nH]c2=O)c1
→ i, -0.05
CNc1nc(CCN2C(=O)c3ccccc3C2=O)cs1
→ i, 0.78
COc1cccc(CNC(=O)CCNC(=O)C2CCN(S(=O)(=O)c3ccccc3)CC2)c1
→ i, -2.8
COc1ccc(Cn2c(-c3ccc(OC)c(O)c3)nc3ccccc32)cc1O
→ i, -0.08
Cc1c2ccccc2nc2c(F)c(NCCO)c(F)c(F)c12
→ i, 23
Cc1cc(NC(=O)CSc2n[nH]c(N)n2)no1
→ i, -0.03
Cc1n[nH]c(=O)nc1NC1CCCCC1
→ i, -0.94
O=C(Cc1ccccc1)NCCS(=O)(=O)N1CCN(c2ccccc2)CC1
→ i, 0.4
O=C(N/N=C1\CCCc2ccccc21)c1cccc(Br)c1
→ i, -0.48
O=C(CN1CCN(c2ccccn2)CC1)Nc1ccc(F)cc1F
→ i, -1.7
COc1cccc(S(=O)(=O)Nc2ccc(C(=O)NCc3ccco3)cc2)c1
→ i, -3.2
O=C1c2cccnc2C(=O)N1Cc1ccc(S(=O)(=O)NCc2ccco2)cc1
→ i, -0.66
CC(=O)Oc1ccc(C2=NN(c3ccccc3)C(c3ccccc3)C2)cc1 (stereo not drawn)
→ i, -0.22
COc1cccc(C(=O)Cn2c(=N)n(C)c3ccccc32)c1
→ i, 2.5
CN(C)CCNC(C(=O)Nc1cccc(C(F)(F)F)c1)c1ccccc1 (stereo not drawn)
→ i, -1
CCOC(=O)c1c(C)[nH]c(C)c1S(=O)(=O)NCCc1ccco1
→ i, 1.7
Cc1csc(Sc2ccc(C(=O)OCC(=O)Nc3ccc(F)cc3[N+](=O)[O-])cc2[N+](=O)[O-])n1
→ i, 0.06
CC(=O)Oc1ccc2nc(CN3C(=O)c4ccc([N+](=O)[O-])cc4C3=O)oc(=O)c2c1
→ i, -0.22
COc1ccc(-c2ccc(=O)n(Cc3c(F)cccc3Cl)n2)cc1
→ i, -0.77

(cont.)
Values run as follows: KCNQ2 inh, KCNQ2 inh baseline
COC(=O)c1cc(CN2C(=O)c3ccccc3C2=O)c(O)c([N+](=O)[O-])c1
→ i, 0.43
Cc1cccc(C)c1OCCOCCN1CCN(C)CC1
→ i, 2.3
CCOC(=O)C1CCN(C(=O)CCCNC(=O)Cn2cnc3sc(C)c(C)c3c2=O)CC1
→ i, 0.74
C=CCNC(=S)Nc1ccc(C)cc1[N+](=O)[O-]
→ i, 2.4
O=C(Nc1ccccc1F)Nc1cccnc1Cl
→ i, -1.1
CC(=O)Nc1ccc(S(=O)(=O)NC(CC(=O)NCCc2ccccc2)C(C)C)cc1 (stereo not drawn)
→ i, -0.05
CCOC(=O)Cn1cc([N+](=O)[O-])c(OC)n1
→ i, 0.32
O=C(CN1CCN(Cc2ccccc2)CC1)N1CCN(c2ccccc2)CC1
→ i, 0.58
O=C(NC(=S)Nc1cccc2cc(O)ccc12)c1ccccc1Br
→ i, -0.34
Cc1occc1C(=O)N/N=C/c1ccc[nH]1
→ i, 1.3
Cc1ccc(N(C(=O)C(F)(F)F)C(C(=O)NC2CCCCC2)c2ccncc2)cc1C (stereo not drawn)
→ i, 2.8
COc1ccc2c(c1OC)C(=O)OC2Nn1cncn1 (stereo not drawn)
→ i, -1.7
O=C(Cn1nc(-c2ccccc2)ccc1=O)NCCN1CCN(c2cccc(Cl)c2)CC1
→ i, -0.02
Cc1nc(Nc2nc3ccccc3o2)nc(C)c1C(=O)Nc1ccc(F)cc1
→ i, 1.2
COc1cc(C=O)ccc1Oc1nc(Nc2ccc(F)cc2F)nc(N2CCOCC2)n1
→ i, -1
CCOC(=O)C1CCCN(C(=O)Cn2ncc3c([nH]c4ccc(C)cc43)c2=O)C1 (stereo not drawn)
→ i, 1.6
O=C(CCNC(=O)C1CCN(S(=O)(=O)c2ccc(F)cc2)CC1)Nc1ccccc1
→ i, 0.43
Cc1cc(C(=O)OCC(=O)c2cccc([N+](=O)[O-])c2)c2ccccc2n1
→ i, 2.1
N#C/C(=C/c1ccc(N2CCOCC2)o1)c1ccc(Br)cc1
→ i, 9.6
C=CCSc1nnc2n(CCc3ccccc3)c(=O)c3c4c(sc3n12)COC(C)(C)C4
→ i, 0.12

3 compounds out of the list, ordered by molecular weight, smallest number first.
Values run as follows: KCNQ2 inh, KCNQ2 inh baseline
Cc1occc1C(=O)N/N=C/c1ccc[nH]1
→ i, 1.3
CC(=O)Nc1ccc(S(=O)(=O)NC(CC(=O)NCCc2ccccc2)C(C)C)cc1 (stereo not drawn)
→ i, -0.05
Cc1ccc(N(C(=O)C(F)(F)F)C(C(=O)NC2CCCCC2)c2ccncc2)cc1C (stereo not drawn)
→ i, 2.8

Remaining list, next part:
Values run as follows: KCNQ2 inh, KCNQ2 inh baseline
NCc1ccc(S(N)(=O)=O)cc1
→ i, 0.28
CC(C)(C)C1C/C(=C/c2ccccn2)C(=O)/C(=C/c2ccccn2)C1 (stereo not drawn)
→ i, -0.02
Cc1cc(C)cc(NC(=S)NCCc2c[nH]c3ccccc23)c1
→ i, -0.42
CCOC(=O)C1(Cc2cccc(OC)c2)CCCN(Cc2cc(C(C)C)n[nH]2)C1 (stereo not drawn)
→ i, -0.04
CCc1cc2c(=O)c(-c3nc4ccccc4n3C)c(C)oc2c(CN2CCN(CCO)CC2)c1O
→ i, 0.65
CCCCn1nc2cc(C(=O)NC3CCCc4ccccc43)ccc2c1OCC (stereo not drawn)
→ i, -0.81
Cc1nn(-c2ccc(N3CCCCC3)nn2)c(C)c1CCC(=O)Nc1cc(F)ccc1F
→ i, -1.2
O=C(NCc1ccc(F)cc1)C(c1ccccc1)N(C(=O)c1csnn1)C1CC1 (stereo not drawn)
→ i, 0.03
NC(=O)CCN1CCN(Cc2cn[nH]c2-c2cccc3ccccc23)CC1
→ i, 0.06
O=C(c1ccc(Cl)s1)N(Cc1nnc(-c2ccccc2Cl)o1)C1CC1
→ i, -1.5
CCOC(=O)c1c(C)[nH]c(C)c1S(=O)(=O)N(C)CC(=O)Nc1cccc(F)c1
→ i, 0.04
O=C(Oc1ccccc1N1CCOCC1)c1ccccc1
→ i, -1.5
CCOC(=O)/C=C1\SCC(=O)N1CC(=O)NCc1cccc(Cl)c1
→ i, 1
O=C(CCCOc1ccccc1)Nc1nnc(C2CCCO2)s1 (stereo not drawn)
→ i, -1.9
COc1ccc(-c2cc(C)no2)cc1S(=O)(=O)NCCCN1CCN(c2ccccc2)CC1
→ i, 0.74
Cc1ccc(NC(NC(=O)OCCn2c([N+](=O)[O-])cnc2C)C(Cl)(Cl)Cl)cc1 (stereo not drawn)
→ i, -0.03
Cc1ccc(NC(=O)CCn2cc(C(F)(F)F)ccc2=O)cc1
→ i, -0.65
c1ccc(Cn2nnc3c(N4CCN(Cc5ccc6c(c5)OCO6)CC4)ncnc32)cc1
→ i, -0.13
CN(Cc1ccccc1)C(=O)c1cc(-c2ccc(Br)cc2)on1
→ i, -1.1
Cc1cc(C)nc(NS(=O)(=O)c2ccc(N=Cc3c(C)[nH]n(-c4ccccc4)c3=O)cc2)n1
→ i, -0.11

Shown with each value named: entries from further up.
CCOC(=O)C1(Cc2cccc(OC)c2)CCCN(Cc2cc(C(C)C)n[nH]2)C1 (stereo not drawn)
  KCNQ2 inh = i
  KCNQ2 inh baseline = -0.04
CCc1cc2c(=O)c(-c3nc4ccccc4n3C)c(C)oc2c(CN2CCN(CCO)CC2)c1O
  KCNQ2 inh = i
  KCNQ2 inh baseline = 0.65

New compounds follow.
Values run as follows: KCNQ2 inh, KCNQ2 inh baseline
CC1(C)C=Cc2c(c3c(c4c(=O)c(-c5ccc(O)cc5)coc24)OC(C)(C)CC3)O1
→ i, 1
CN(CC(=O)NNC(=O)CCNS(=O)(=O)c1ccccc1)S(=O)(=O)c1ccc(Cl)cc1
→ i, 0.77
CCOCCCNC(=O)C(NC(=O)c1ccc(NC(C)=O)cc1)c1ccc(C)cc1 (stereo not drawn)
→ i, 1.3
Cc1ccc(S(=O)(=O)N2CCC(C(=O)N3CCC(C(=O)NCC4CCCO4)CC3)CC2)cc1 (stereo not drawn)
→ i, 1.5
CCN(CC(=O)Nc1c(F)cccc1F)C(=O)c1ccc(S(=O)(=O)N2CCCCC2)cc1
→ i, -0.57
Cc1c(C(C)(C(=O)O)c2c(C)n(C)c3ccccc23)c2ccccc2n1C
→ i, 2.1
COc1ccc(/C(O)=C(\C#N)c2nc3ccccc3n2C)cc1OC
→ i, 0.01
CCCc1cc(=O)oc2c3c(cc(OCC(=O)N[C@@H](C)C(=O)O)c12)OC(C)(C)CC3
→ i, -1.2
Cc1cc(NC(=O)c2ccccc2C)no1
→ i, -0.65
COC(=O)c1sc2ccccc2c1-n1cccc1C(=O)C(=O)Nc1ccccc1
→ i, -1
O=C(CCc1ccc(S(=O)(=O)NCCc2ccccc2)cc1)N1CCN(Cc2ccc3c(c2)OCO3)CC1
→ i, -0.25
Cc1ccc(OCc2cc(C(=O)N3CCCC(O)C3)no2)cn1 (stereo not drawn)
→ i, -0.69
c1ccc2oc(C3=NNC(=NC4CC4)SC3)cc2c1
→ i, 0.12
O=C(Cc1ccccc1F)OCN1C(=O)c2ccccc2C1=O
→ i, 1.1
CCCS(=O)(=O)c1ccc(COC(=O)c2ccc(NC(C)=O)cc2)cc1
→ i, 1.2
CC(=O)c1ccc(NC(=O)N[C@@H](CC(C)C)C(=O)O)cc1
→ i, -0.25
Cn1cccc1CNCc1ccc(F)cc1
→ i, 1.7
O=C(/C=C/c1cccs1)N1CCN(c2ccc(F)cc2)CC1
→ i, 1.4
O=C1CC(/C=C/c2ccccc2)=Nc2ccccc2N1
→ i, 1
